SARS PLP yeast: blocks SARS-CoV papain-like protease in a yeast assay; S. cerevisiae expressing SARS-CoV PLpro, growth rescue; control for the full effect not named in the record; Potency, µM (highest dose often 32.9 µM), for inactives: top-dose activity, positive = growth rescue; hit rate 0.19% among 330,000; AID 485353; active means well fitted rising curve with a large enough effect; inconclusive means small, poorly fitted or top-dose-only effect; inactive means no such curve, though single readings can be large or run the other way; further: 0% is about no effect; nearly all actives have a fitted effect of over 55% in size; growth read by luminescence after 48 h
MARV entry inh: Marburg virus entry inhibition | Marburg virus pseudotyped entry inhibition, cell reporter; control for the full effect not named in the record; about a third of the inactives were read at about 46 µM | Potency, µM (highest dose often 37.8 µM), inactives show top-dose activity change, negative = inhibition, hits mostly inhibitors | hit rate 1.8% among 300,000; active = well fitted inhibition curve with a large enough effect; inconclusive = small, poorly fitted or top-dose-only effect, or effect the other way; inactive = flat fitted curve, though single readings scatter; tested in HEK293 cells; about a fifth of its hits are not listed in these tables; further: on the % scale 0 is the no-effect control and ±100 the full control effect; luciferase read-out
Cruzain noTriton: inhibitors of Trypanosoma cruzi cruzain without detergent. P25779. hit rate 2.3% among 200,000. Potency, µM, for inactives: max response, negative = inhibition, hits mostly inhibitors. purified cruzain, Z-FR-AMC fluorescence, no detergent;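 further: plate controls were enzyme without inhibitor for no effect and buffer without enzyme for full effect; nearly all actives have a fitted effect of over 40% in size; top concentration of the series not given in the record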
Target sequence (P25779 123-467 limits assumed): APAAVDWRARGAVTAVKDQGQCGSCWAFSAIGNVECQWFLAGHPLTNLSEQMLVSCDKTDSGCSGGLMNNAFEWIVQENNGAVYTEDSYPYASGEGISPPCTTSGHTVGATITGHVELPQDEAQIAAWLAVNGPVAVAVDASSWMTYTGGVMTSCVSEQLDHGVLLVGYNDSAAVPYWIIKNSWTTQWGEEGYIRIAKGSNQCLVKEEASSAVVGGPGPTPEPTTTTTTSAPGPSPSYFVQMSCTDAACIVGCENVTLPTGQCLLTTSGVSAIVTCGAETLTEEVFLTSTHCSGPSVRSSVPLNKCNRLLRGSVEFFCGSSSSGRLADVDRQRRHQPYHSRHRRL
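Detergent-free condition (0.00005% Triton X-100) in acetate buffer pH 5.5 with DTT. 1.5 nM enzyme and compound were pre-mixed 15 min, then 2 uM Z-FR-AMC substrate added; reaction progress from fluorescence change between first and third reads (60 s).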
2A StopGo: lowers the luciferase signal of an FMDV 2A StopGo reporter; human cells with a luciferase reporter of 2A StopGo recoding; control for the full effect not named in the record; Potency, µM (doses to about 57.9 µM), without a hit: at the highest dose signal change, negative = less light; hit rate 1.2% among 410,000; AID 1159524; active = well fitted falling curve with a large enough effect; inconclusive = small, poorly fitted or top-dose-only effect; inactive = no such curve, though single readings can be large or run the other way; tested in HEK293T cells; further: on the % scale 0 is the no-effect control and ±100 the full control effect; nearly all actives have a fitted effect of over 45% in size; luciferase light after 4 h
RE007 growth inh: less growth of the S. pombe RE007 Vpr strain; S. pombe RE007 Vpr strain, BacTiter-Glo ATP luminescence, 24 h; control for the full effect not named in the record; Potency, µM (titrated, usually from 92.2 µM), for the others: top-dose activity change, negative = less growth; hit rate 0.21% among 360,000; AID 651644; active = well fitted falling curve with a large enough effect; inconclusive = small, poorly fitted or top-dose-only effect; inactive = no such curve, though single readings can be large or run the other way;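 further: on the % scale 0 is the no-effect control and ±100 the full control effect; nearly all actives have a fitted effect of over 50% in size; the assay follows cell death caused by Vpr and the record does not say whether a fall means rescue or toxicity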
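Fission yeast RE007 carrying one integrated HIV-1 vpr copy, seeded at OD 0.01 in PMG+AL medium with 23 nL pinned compound. Grown 24 h at 30 degrees; viability read by BacTiter-Glo luminescence after 5 min.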
NS1 inh: influenza NS1 inhibition; AID 2326; Potency, µM (doses to about 46.1 µM), for the others: at the highest dose activity, positive = more growth; S. cerevisiae slowed by influenza A NS1, growth recovery by OD600; hit rate 0.4% among 270,000; active means well fitted rising curve with a large enough effect; inconclusive means small, poorly fitted or top-dose-only effect; inactive means no such curve, though single readings can be large or run the other way; further: nearly all actives have a fitted effect of over 50% in size
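S. cerevisiae expressing influenza A NS1, grown in glucose, washed, then diluted 1:100 into pH 6.0 -URA galactose medium with 23 nl compound. Growth recovery read as OD600; NS1-free strain serves as control.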
Cruzain Triton: inhibitors of Trypanosoma cruzi cruzain with detergent; hit rate 0.43% among 200,000; Potency, µM, for the others: max response, negative = inhibition, actives largely listed as inhibitors; purified cruzain, Z-FR-AMC fluorescence, 0.01% Triton; AID 1478;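 further: plate controls were neutral wells for no effect and buffer without enzyme for full effect; nearly all actives have a fitted effect of over 40% in size; top concentration of the series not given in the record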
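Z-FR-AMC hydrolysis (2 uM substrate) by cruzain (1.5 nM) monitored kinetically at ex 360/em 450 nm after 15 min room-temperature compound exposure; 0.01% Triton X-100, pH 5.5, 5 mM DTT.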
Lassa entry inh: blocks Lassa virus binding to or entry into cells; hit rate 1.2% among 300,000; Potency, µM (series often up to 37.9 µM), for the others: at the top dose activity change, negative = inhibition, hits mostly inhibitors; Lassa virus pseudotype entry inhibition, cell reporter; control for the full effect not named in the record; active means well fitted inhibition curve with a large enough effect; inconclusive means small, poorly fitted or top-dose-only effect, or effect the other way; inactive means flat fitted curve, though single readings scatter; tested in HEK293 cells; further: on the % scale 0 is the no-effect control and ±100 the full control effect; nearly all actives have a fitted effect of over 50% in size; luciferase read-out
Numbers without * were called inactive; ? = inconclusive; nt = no result given; & = joins results of further samples; [ ] = remark or other dose. Unless noted, the call rests on the fitted dose curve; in most records, active means well fitted curve in the direction sought with a large enough effect; inconclusive means small, poorly fitted or top-dose-only effect, or another doubt; inactive means no such curve, though single readings can be large; an effect the other way counts as inactive or inconclusive. Potency means the concentration at half of the fitted maximal effect. No enrichment for hits; any-hit rate near 4.7%.

Sequence of screens – SARS PLP yeast, MARV entry inh, Cruzain noTriton, 2A StopGo, RE007 growth inh, NS1 inh, Cruzain Triton, Lassa entry inh
> CCOC(=O)c1c(/N=C/c2cc([N+](=O)[O-])ccc2O)sc(C)c1C
    -75%, 9%, -2%, 3%, 7%, nt, -7.4%, -9%
> COc1cc(C(CC(=O)Nc2ccc(C)c(F)c2)N2Cc3ccccc3C2=O)cc(OC)c1OC (centres undefined)
    nt, nt, -1%, 31%[activator], nt, nt, -2.5%, 0%[46.1 µM]
> COc1cc(CNCCSc2nnnn2C)cc(OC)c1OC
    2%, -5%, -13%, 8%, 1%, 8%, 3.6%, 4%
> COc1cc(Cn2c(=O)c3c(OC)c(C)cnc3n(C)c2=O)cc(OC)c1
    1%, 19%[46.1 µM], nt, 4%, 14%, -11%, nt, 22%[46.1 µM]
> Cc1ccccc1Nc1nc(N)nc(CN2CCN(c3ccccn3)CC2)n1
    0%, -2%, 5%, 0%, -10%, 5%, -2.4%, -3%
> O=C(Nc1nc(-c2ccccn2)cs1)c1ncc(Cl)c(Cl)c1Cl
    nt, -26%, -26%, -24%, ?, -163%, -0.3%, ?
> Cc1ccc(-c2c(C(=O)Nc3ccccc3C)c(C)[nH]c(=S)c2C#N)o1
    1%, -4%[46.1 µM], nt, -4%, -9%, ?, nt, -1%
> COc1ccc(C(CNc2nc(-c3cccnc3)nc3ccccc23)N(C)C)cc1 (centres undefined)
    -2%, ?, nt, -13%, 1%, -2%, nt, -4%
> Cc1ccc(C(=O)Nc2ccc(N3CCOCC3)cc2)cc1
    9%, 21%&21%, 4%, nt, 1%, -5%, 6.7%, 2%
> Cc1ccc(-c2nnn(CC(=O)NCc3ccccc3)n2)c(-n2cnnn2)c1
    5%, -10%, -24%, -3%, -21%, 11%, -1.2%, -17%
> CCS(=O)(=O)N1CCc2cc(C(=O)NCCc3ccccc3)ccc21
    nt, ?, 7%, 36%[activator], nt, nt, -5.1%, -7%[46.1 µM]
> C#CCOCCOCCOCCNc1nc(N2CCN(C(=O)[C@H]([C@@H](C)CC)n3cc([C@@H](N)Cc4ccc(O)cc4)nn3)CC2)nc(N2CCN(C(=O)[C@H](Cc3ccc(O)cc3)n3cc([C@@H](N)C(C)CC)nn3)CC2)n1 (some centres undefined)
    -2%, nt, nt, -3%, -3%, 5%, nt, nt
> COc1ccc(NC(=O)CN2CCN(Cc3ccc(F)cc3)S2(=O)=O)cc1Cl
    nt, nt, -7%, -24%, nt, nt, -6.3%, -12%[46.1 µM]
> CCOc1ccc2nc(N3CCCC(C(=O)Nc4ccc(CC)cc4)C3)sc2c1 (centres undefined)
    nt, ?, 0%, 13%, nt, nt, -0.3%, nt
> COc1ccc(-c2ccc(CCC(=O)O)n2-c2cc(Cl)ccc2O)cc1
    nt, -16%[46.1 µM], 4%, 22%, nt, nt, -14%, ?
> CN(C)c1ccc(C(C(=O)NCc2ccccc2)N(Cc2cccnc2)C(=O)c2snc(C(N)=O)c2N)cc1 (centres undefined)
    4%, ?, nt, -7%, -3%, -22%, nt, ?
> CCCCn1c(N)c(N(CCOC)C(=O)CSCC(=O)Nc2cccc(C)c2)c(=O)[nH]c1=O
    nt, 22%, nt, -21%, 5%, nt, nt, -5%
> Cn1nc(C(C)(C)C)cc1C(=O)O
    2%, 6%, nt, -4%, 21%, 1%, nt, 2%
> Cc1cc(C(=O)COc2cccnc2[N+](=O)[O-])c(C)n1-c1ccccc1F
    0%, nt, nt, -7%, 2%, ?, nt, nt
> O=C(Cn1cnc2c(nnn2Cc2ccccc2)c1=O)c1ccc(Cl)cc1
    -14%, nt, -8%, -13%, 15%, 9%, -3.4%, nt
> O=C(NCCc1csc2nc(-c3ccc(F)cc3)nn12)c1cccc(C(F)(F)F)c1
    nt, nt, 14%, -20%, nt, nt, -7.6%, -6%[46.1 µM]
> COC(=O)CCNCCSc1nnc(-c2ccco2)n1Cc1ccccc1
    0%, nt, nt, -2%, 6%, 2%, nt, nt
> CCOC(=O)N1CCN(C(=O)C2CCN(CC3CCCCC3)CC2)CC1
    -12%, 3%, -11%, -11%, 9%, 7%, 0.8%, -1%
> O=[N+]([O-])c1cccc(S(=O)(=O)N2CCN(S(=O)(=O)N3CCOCC3)CC2)c1
    0%, -7%[46.1 µM], nt, -9%, 16%, -3%, nt, 10%
> Cc1cc([N+](=O)[O-])nn1CCCC(=O)Nc1c(C)n(C)n(-c2ccccc2)c1=O
    2%, -2%[46.1 µM], nt, -7%, 38%, nt, nt, -8%[46.1 µM]
> Cc1cccc(Cc2c(C)nc3nc(SCc4ccccc4F)nn3c2C)c1
    nt, nt, ?, 1%, nt, nt, -4.7%, 14%[46.1 µM]
> Cc1nn(CC(=O)N2CCC(N3CCCCC3)CC2)c(=O)c2c1sc1ccccc12
    -5%, nt, nt, -5%, 0%, -5%, nt, nt
> O=C(CCCn1c(SCC(=O)c2ccc(F)cc2)nc2ccccc2c1=O)NCc1ccco1
    4%, ?, -26%, -20%, -1%, -5%, 5.9%, 11%
> O=C(O)CC1(Cc2nc(-c3cccs3)no2)CCCC1
    9%, nt, 3%, 8%, 2%, -74%, 0.9%, nt
> COc1ccc(N2C(=O)CCC(C(=O)NCCN3CCOCC3)C2c2ccc(OC)c(OC)c2)cc1 (centres undefined)
    22%, 4%, -20%, -9%, 0%, 9%, -12%, 2%
> COc1ccc(-c2nc3ccccc3s2)cc1NC(=O)c1cccc(F)c1
    nt, nt, -2%, 6%, nt, nt, -1.6%, 2%[46.1 µM]
> C=CCOc1c2ccc(C(=O)N(CC)c3ccc(OC)cc3)cc2nn1C
    0%, nt, 4%, -12%, -8%, -7%, 0.6%, nt
> CCN(CC)S(=O)(=O)c1cccc(-c2nnc(SCC(N)=O)n2N)c1
    1%, nt, nt, -12%, -2%, ?, nt, nt
> COc1ccc(N2C(=O)c3ccccc3NC2c2ccc(OC)c(CN3CCOCC3)c2)cc1 (centres undefined)
    0%, nt, nt, 47%[activator], -24%, 3%, nt, nt
> Nc1nonc1C(=O)NCCNCc1ccc(Cl)c(Cl)c1
    nt, 4%[46.1 µM], 8%, ?, nt, nt, -1.6%, 14%[46.1 µM]
> COC(=O)c1sc(C(C)(C)C)cc1CS(=O)(=O)c1ccc(Cl)cc1
    -1%, nt, nt, ?, 14%, 0%, nt, nt
> O=C(CSc1nnc2ccccn12)NNC(=O)c1ccc([N+](=O)[O-])cc1
    -1%, nt, nt, -5%, 7%, -3%, nt, nt
> CCOC(=O)CCC(=O)Nc1ccc(S(=O)(=O)N2CCC(C)CC2)cc1
    17%, 2%, 4%, 14%, 41%, -12%, -5.7%, 1%
> CCN(CC(=O)Nc1ccccc1Br)C1CCCCC1
    2%, -21%[46.1 µM], nt, -20%, -2%, nt, nt, 14%
> CCSc1nc(-c2ccc(OC)cc2)cc(-c2ccc(OC)cc2)c1C#N
    4%, -24%, -23%, nt, 79%, -1%, 7.7%, -20%
> O=C(NCCCN1CCCCCC1)C1CC(=O)N(C2CCCC2)C1 (centres undefined)
    6%, 19%, 5%, 4%, 1%, -6%, 4.6%, -4%
> COc1ccc(Nc2cc(C(=O)NCCCN3CCN(C)CC3)c3ccccc3n2)c(OC)c1
    -3%, 0%, -3%, 22%, 2%, -10%, -9.3%, ?
> COC(=O)Cn1c(=NC(=O)CN2C(=O)CCC2=O)sc2cc(S(N)(=O)=O)ccc21
    20%, -8%, -9%, -10%, -12%, 0%, -2.7%, 19%
> Cc1cnc(C(=O)OCC(=O)Nc2cccc(S(=O)(=O)N3CCOCC3)c2)cn1
    2%, 3%, nt, -1%, 13%, nt, nt, 26%
> CCOC(=O)c1ccc(NC(=S)NCC(O)c2ccccc2)cc1 (centres undefined)
    3%, ?, 2%, 4%, 5%, 5%, -8.9%, ?
> CCOc1ccc(C2C(C#N)=C(N)N3C(=C2C#N)Sc2ccccc23)cc1 (centres undefined)
    -2%, -1%, ?, 44%[activator], -13%, ?, -10%, 21%
> Cn1nc(C(C)(C)C)cc1C(=O)NNC(=O)c1ccccc1Cl
    0%, -26%, nt, ?, -1%, 1%, nt, 1%
> Cc1cc(NS(=O)(=O)c2ccc(NC(=S)NCc3ccccc3)cc2)no1
    -2%, 12%, nt, 8%, 5%, nt, nt, 1%[46.1 µM]
> O=C(c1cccc(COCC(F)(F)C(F)F)c1)N1CCN(c2ccccc2)CC1
    nt, -1%, 15%, -12%, 5%, -76%, 0.2%, -21%[14.3 µM]
> CS(=O)(=O)N(CCc1ccccc1)CC(=O)Nc1ccc2c(c1)OCO2
    nt, 0%, -3%, 20%, -9%, -11%, -5.7%, 7%
> Cc1nc(SCC(=O)c2ccc(F)c(F)c2)[nH]c(=O)c1Oc1ccc(F)cc1
    0%, 7%[46.1 µM], nt, 1%, 18%, 3%, nt, 15%
> O=Cc1sc(=O)n(Cc2cccc(C(=O)O)c2)c1Cl
    2%, -5%[46.1 µM], nt, -15%, -2%, 7%, nt, 1%
> O=c1c2nnn(Cc3ccc(Cl)cc3)c2ncn1Cc1ccc(F)cc1
    -1%, -18%, -6%, -7%, -8%, -6%, 1.5%, -7%[14.3 µM]
> CCOC(=O)c1c(S(=O)(=O)N2CCCC(C(=O)Nc3ncccc3C)C2)c(C)n(C)c1C (centres undefined)
    6%, nt, -4%, 6%&-3%, 4%, ?, 0.3%, 28%[46.1 µM]
> COc1ccc(-c2c(C(C)=O)c(C)nc3sc4c(=O)n(-c5ccc(C)cc5)nnc4c23)cc1
    -2%, -19%, -2%, -27%, -8%, 18%, -1.2%, ?

Copied from above for reference:
Sequence of screens – SARS PLP yeast, MARV entry inh, Cruzain noTriton, 2A StopGo, RE007 growth inh, NS1 inh, Cruzain Triton, Lassa entry inh
> CCOc1ccc(C2C(C#N)=C(N)N3C(=C2C#N)Sc2ccccc23)cc1 (centres undefined)
    -2%, -1%, ?, 44%[activator], -13%, ?, -10%, 21%
> Cn1nc(C(C)(C)C)cc1C(=O)NNC(=O)c1ccccc1Cl
    0%, -26%, nt, ?, -1%, 1%, nt, 1%

Screens (PubChem BioAssay)
